MT1-MMP act inh = blocks activation of human MT1-MMP. P50281. HT1080 RFP-PRO-GFP cells, GFP/RFP ratio fluorescence, overnight; percent of plate control window, DMSO zero. GFP/RFP ratio change, % at 20 µM. 360,000 tested, 0.061% active;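 active = GFP/RFP ratio change of at least 30% with cell ATP level not reduced by more than half and red fluorescence within 50% of control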; note: strong numbers were not always called active
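Assay system – RFP-PRO-GFP reporter HT1080 cells · Compound dosing – single dose of 20 µM compound, 1% DMSO final · Incubation – overnight compound exposure at 37 °C · Measure – GFP/RFP fluorescence ratio · Benchmarks – DMSO wells and RFP-L50D-GFP cells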
eIF4H FP inh = inhibitors of RNA binding by human eIF4H; 290,000 tested, 0.94% active; eIF4H fluorescence polarization binding assay; Q15056; inhibition, % at 35 µM;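 active = 50% or more with normal probe brightness, or confirmed in later tests; inconclusive = above 50% with abnormal brightness, or retests that disagree; inactive = below 50% or failed in later tests; about a fifth of its hits are not listed in these tables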;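 note: calls also rest on retests at 20 µM and on dose response follow-up; 0% = protein and probe with vehicle and 100% = probe without protein; strong numbers were not always called active; many hits fall short of the cut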
PABP FP inh = blocks human PABP binding to poly(A) RNA; P11940; 290,000 tested, 1% active; AID 2014; fluorescence polarization; inhibition, % at 35 µM;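 active = 50% or more with normal probe brightness, or confirmed in later tests; inconclusive = above 50% with abnormal brightness, or retests that disagree; inactive = below 50% or failed in later tests; about a fifth of its hits are not listed in these tables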;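 note: calls also rest on retests at 20 µM and on dose response follow-up; controls were probe without protein and protein plus probe with vehicle; some compounds called inactive have numbers as strong as hits; many hits fall short of the cut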
Target sequence (P11940 whole entry, looked up): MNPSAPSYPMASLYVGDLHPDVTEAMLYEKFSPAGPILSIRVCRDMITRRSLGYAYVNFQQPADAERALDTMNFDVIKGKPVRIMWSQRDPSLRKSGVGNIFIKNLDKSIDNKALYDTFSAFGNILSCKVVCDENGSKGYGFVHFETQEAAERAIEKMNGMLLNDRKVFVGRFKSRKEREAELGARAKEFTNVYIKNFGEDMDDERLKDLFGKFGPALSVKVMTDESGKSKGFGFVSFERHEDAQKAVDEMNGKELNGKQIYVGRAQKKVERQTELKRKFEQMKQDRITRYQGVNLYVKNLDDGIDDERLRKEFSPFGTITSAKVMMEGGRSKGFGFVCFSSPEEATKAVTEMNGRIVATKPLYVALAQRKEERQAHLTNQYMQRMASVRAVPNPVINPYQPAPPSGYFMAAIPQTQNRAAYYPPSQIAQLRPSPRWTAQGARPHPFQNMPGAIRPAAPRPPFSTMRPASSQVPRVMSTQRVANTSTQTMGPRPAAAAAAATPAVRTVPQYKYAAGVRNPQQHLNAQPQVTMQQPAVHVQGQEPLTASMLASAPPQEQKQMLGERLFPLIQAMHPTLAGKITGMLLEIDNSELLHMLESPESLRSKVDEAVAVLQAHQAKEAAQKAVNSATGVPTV
Yeast UUG start = yeast start codon fidelity modulation; S. cerevisiae UUG-firefly luciferase reporter, luminescence/redox ratio; 350,000 tested, 0.13% active; activity score, % at 18.7 µM;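 active = replicate mean at a twofold rise or more, about +100% in these data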;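 note: firefly luciferase made from a UUG start codon reports start codon fidelity; reporter light over untreated wells divided by growth signal over untreated wells; some hits fall short of that in this replicate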
CSC inhib = blocks cancer stem cells | cancer stem cell-like cells viability, luminescence | inhibition, % at 7.5 µM | 300,000 tested, 1.1% active;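 active = mean at 75% or more and at least half the replicates too; inconclusive = mean and replicates disagree; tested in HMLE shEcad cells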;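 note: 0% = median of negative and 100% = median of positive control wells; the first replicate is given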
Rce1 inhib = yeast Ras-converting enzyme inhibition. yeast membranes, quenched prenylated peptide cleavage fluorescence. AID 2563. 290,000 tested, 0.27% active. calls only. Q03530;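 active = fall in fluorescence gain of 50% or more versus controls, with final raw signal at or below 3038400; inconclusive = same 50% fall but final raw signal above 3038400; inactive = fall in fluorescence gain under 50%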;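 note: plate controls were neutral control wells for no effect and wells lacking membranes for full effect; tested at 10 µM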
Target sequence (Q03530 whole entry, looked up): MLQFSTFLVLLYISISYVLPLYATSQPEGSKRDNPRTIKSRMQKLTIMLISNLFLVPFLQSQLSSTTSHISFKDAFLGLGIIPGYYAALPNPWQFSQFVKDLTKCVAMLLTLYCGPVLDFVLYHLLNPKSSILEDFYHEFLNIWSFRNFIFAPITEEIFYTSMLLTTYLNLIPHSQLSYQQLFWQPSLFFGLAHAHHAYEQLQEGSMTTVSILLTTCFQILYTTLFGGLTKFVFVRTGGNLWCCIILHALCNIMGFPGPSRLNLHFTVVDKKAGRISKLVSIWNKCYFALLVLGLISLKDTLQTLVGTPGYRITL
Env fusion inh = blocks HIV Env-driven cell-cell fusion. 360,000 tested, 1.1% active. inhibition, % at 12.3 µM. AID 651610. HeLa-JRFL Env/CEM21 cell fusion, luciferase;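 active = mean replicate inhibition score of at least 50 and every replicate individually at or above 50; inconclusive = only one of the two criteria met; inactive = mean below 50 and not all replicates reaching 50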;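 note: 0% = plate neutral controls and 100% = maraviroc near 300 nM; one replicate is shown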
eIF4H FP inh retest = recorded beside eIF4H FP inh, whose call it bears; inhibition, %; compound at 20 µM; confirmation average;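 mean of two retest wells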
PABP FP inh retest = also measured in PABP FP inh; calls as there; inhibition, %; compound at 20 µM; confirmation repeats;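 mean of two retest wells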
MT1-MMP act inh RFP = second read-out of MT1-MMP act inh, no call of its own (marks repeat the call); RFP signal change, %; measured here: RFP expression control read;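 0 = vehicle wells; hits needed this value within 50% of zero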
The depositor's hits bear a star. The list is partial (hit frequency here may not be typical).

COc1ccc(OCC(=O)N/N=C/c2ccsc2)cc1 was read as MT1-MMP act inh 6, eIF4H FP inh -8, PABP FP inh -4, Yeast UUG start 8, CSC inhib -10, Rce1 inhib inactive, Env fusion inh -13 and MT1-MMP act inh RFP 5.
`ClC(=C\c1ccccc1)/C=N/N1CCN(c2ccccn2)CC1` gave MT1-MMP act inh 9, eIF4H FP inh -6, PABP FP inh 8, Yeast UUG start -12, CSC inhib 20, Rce1 inhib inactive and MT1-MMP act inh RFP -3.
For Cc1ccc(OCCN(C)C(=O)C2CCC(=O)N(Cc3ccccc3F)C2)cc1 (stereo unspecified) the results were MT1-MMP act inh 0, eIF4H FP inh 4, PABP FP inh -9, Yeast UUG start 1, CSC inhib -3, Env fusion inh 19 and MT1-MMP act inh RFP 4.
Cc1[nH]n(-c2ccccc2)c(=O)c1/C=N/NC(=O)c1ccc(O)cc1O was read as MT1-MMP act inh -2, eIF4H FP inh 8, PABP FP inh 11, Yeast UUG start -22, Rce1 inhib inactive and MT1-MMP act inh RFP -4.
For O=C(Oc1ccc(/C=N/NC(=O)c2ccccc2F)cc1)c1ccccc1 the results were MT1-MMP act inh 2, eIF4H FP inh 14, PABP FP inh 20, Yeast UUG start -21, CSC inhib 2, Rce1 inhib inactive, Env fusion inh -8 and MT1-MMP act inh RFP 2.
Screening c1ccc(-c2sc3ccccc3c2-c2ccc(OCCN3CCOCC3)cc2)cc1 returned MT1-MMP act inh -9, Yeast UUG start -6, CSC inhib 86* and MT1-MMP act inh RFP -8.
O=C(c1cc(-c2ccco2)on1)N1CCN(C(c2ccccc2)c2ccccc2)CC1 was read as MT1-MMP act inh -22, eIF4H FP inh -11, PABP FP inh 7, Yeast UUG start 4, CSC inhib 1, Rce1 inhib inactive, Env fusion inh 32 and MT1-MMP act inh RFP -8.
For COC(=O)c1ccc(NC(=S)NC(=O)c2cccnc2)cc1 the results were MT1-MMP act inh 2, eIF4H FP inh 0, PABP FP inh -1, Yeast UUG start 2, CSC inhib -18, Rce1 inhib inactive, Env fusion inh -7 and MT1-MMP act inh RFP 1.
COC(=O)c1nnn(-c2nonc2N)c1CN1CCc2ccccc21 was read as MT1-MMP act inh -2, eIF4H FP inh -8, PABP FP inh 1, Yeast UUG start -6, CSC inhib -3, Rce1 inhib inactive and MT1-MMP act inh RFP 1.
For COc1ccc(CCNC(=O)CSc2nnc(-c3ccco3)c(-c3ccco3)n2)cc1OC the results were eIF4H FP inh 84*, PABP FP inh 48*, Rce1 inhib inactive, eIF4H FP inh retest 104* and PABP FP inh retest 60*.
COc1cccc(C2c3c(oc4ccccc4c3=O)C(=O)N2CCCN2CCOCC2)c1 (stereo unspecified) was read as MT1-MMP act inh -2, eIF4H FP inh 5, PABP FP inh 1, Yeast UUG start -11, CSC inhib 5, Rce1 inhib inactive, Env fusion inh 7 and MT1-MMP act inh RFP 2.
CCOc1ccc(C(=O)N2CCN=C2SC)cc1OCC was read as MT1-MMP act inh 11, eIF4H FP inh 6, PABP FP inh -3, Yeast UUG start -17, CSC inhib 17, Rce1 inhib inactive and MT1-MMP act inh RFP 7.
For O=C(Nc1ccccc1Cc1ccccc1)c1oc2ccccc2c1COc1ccccc1 the results were MT1-MMP act inh -8, eIF4H FP inh 4, PABP FP inh -4, CSC inhib 26, Rce1 inhib inactive, Env fusion inh 16 and MT1-MMP act inh RFP -9.
`Nc1cc(C2CCCC2)nn1-c1ccccc1` gave MT1-MMP act inh 10, eIF4H FP inh -6, PABP FP inh -10, Yeast UUG start -5, CSC inhib 3, Rce1 inhib inactive and MT1-MMP act inh RFP 6.
Screening Cc1c(Cl)cccc1N=Cc1ccc([N+](=O)[O-])s1 returned MT1-MMP act inh -2, eIF4H FP inh -6, PABP FP inh -9, Yeast UUG start -2, CSC inhib 28, Rce1 inhib inactive, Env fusion inh -292 and MT1-MMP act inh RFP 5.
`COc1ccc(N2CCN(S(=O)(=O)c3ccc(OC)c(C(=O)N4CCCCC4)c3)CC2)cc1` gave MT1-MMP act inh 0, eIF4H FP inh -2, PABP FP inh -1, Yeast UUG start -10, CSC inhib 8, Rce1 inhib inactive, Env fusion inh 11 and MT1-MMP act inh RFP -2.
CCn1c(SCC(=O)Nc2ccc(N3CCOCC3)cc2)nnc1C1CC1 was read as MT1-MMP act inh -1, Yeast UUG start -13, CSC inhib -9 and MT1-MMP act inh RFP 1.
For CCN(CC)c1nc(Nc2ccccc2)nc(Oc2ccc(=O)[nH]n2)n1 the results were MT1-MMP act inh 6, eIF4H FP inh -4, PABP FP inh -5, Yeast UUG start 3, CSC inhib 8, Rce1 inhib inactive, Env fusion inh 91* and MT1-MMP act inh RFP -1.
`O=C(CCc1ccc(S(=O)(=O)N2CCOCC2)cc1)N1CCN(Cc2ccc3c(c2)OCO3)CC1` gave MT1-MMP act inh 2, eIF4H FP inh -6, PABP FP inh -10, Yeast UUG start -15, CSC inhib 21, Rce1 inhib inactive, Env fusion inh 20 and MT1-MMP act inh RFP -4.
For O=C(Nc1ccc(NC(=O)c2ccc3c(c2)OCO3)cc1)c1cccc(Cl)c1 the results were MT1-MMP act inh 3, Yeast UUG start -16, CSC inhib -2, Env fusion inh -5 and MT1-MMP act inh RFP 5.

Brought forward from above: 2 entries, followed by the next part.
`O=C(CCc1ccc(S(=O)(=O)N2CCOCC2)cc1)N1CCN(Cc2ccc3c(c2)OCO3)CC1` gave MT1-MMP act inh 2, eIF4H FP inh -6, PABP FP inh -10, Yeast UUG start -15, CSC inhib 21, Rce1 inhib inactive, Env fusion inh 20 and MT1-MMP act inh RFP -4.
For O=C(Nc1ccc(NC(=O)c2ccc3c(c2)OCO3)cc1)c1cccc(Cl)c1 the results were MT1-MMP act inh 3, Yeast UUG start -16, CSC inhib -2, Env fusion inh -5 and MT1-MMP act inh RFP 5.
O=C(Nc1cccc(NC(=O)c2cccs2)c1)c1ccc(F)cc1 was read as MT1-MMP act inh 0, eIF4H FP inh -4, PABP FP inh 6, Yeast UUG start 4, CSC inhib 1, Rce1 inhib inactive, Env fusion inh -3 and MT1-MMP act inh RFP -4.
`COc1cc(NC(=O)c2cc(S(=O)(=O)N3CCc4ccccc43)cn2C)cc(OC)c1OC` gave MT1-MMP act inh 4, eIF4H FP inh 1, PABP FP inh -9, Yeast UUG start -4, CSC inhib -14, Rce1 inhib inactive, Env fusion inh 0 and MT1-MMP act inh RFP 1.
Screening CC(O)CNC(=O)Cc1cc(=O)[nH]c(=O)[nH]1 (stereo unspecified) returned MT1-MMP act inh 1, eIF4H FP inh 2, PABP FP inh 8, Yeast UUG start -23, CSC inhib -9, Rce1 inhib inactive, Env fusion inh 5 and MT1-MMP act inh RFP 3.
`CC1(C)SC2c3ccccc3C(=O)N2[C@@H]1C(=O)O` (stereo partly specified) gave MT1-MMP act inh 0, eIF4H FP inh -2, PABP FP inh 0, Yeast UUG start -11, CSC inhib -3, Rce1 inhib inactive, Env fusion inh 5 and MT1-MMP act inh RFP 2.
For CCC1(C(=O)OC)CCc2c(cc(OC)c3ccccc23)C1=O (stereo unspecified) the results were MT1-MMP act inh 2, eIF4H FP inh 10, PABP FP inh 3, CSC inhib 30, Env fusion inh 22 and MT1-MMP act inh RFP 3.
`C[C@@H](CN1C(=O)C(=O)NC[C@@H]1Cc1ccc(O)cc1)NC(=O)Cc1ccccc1` gave MT1-MMP act inh 0, eIF4H FP inh -3, PABP FP inh -1, Yeast UUG start -11, CSC inhib -4, Rce1 inhib inactive, Env fusion inh -17 and MT1-MMP act inh RFP 4.
`CCn1c(CSc2nc3ccccc3s2)nc2ccccc21` gave MT1-MMP act inh 3, eIF4H FP inh -8, PABP FP inh -6, Yeast UUG start -10, CSC inhib 17, Rce1 inhib inactive, Env fusion inh -105 and MT1-MMP act inh RFP -3.
`COCCN1C(=O)c2[nH]nc(-c3ccccc3O)c2C1c1ccc(OC)cc1` (stereo unspecified) gave MT1-MMP act inh -4, eIF4H FP inh -6, PABP FP inh -4, CSC inhib -3, Rce1 inhib inactive, Env fusion inh 15 and MT1-MMP act inh RFP -3.
Screening COC(=O)c1cccc(-n2c(C)cc(C=O)c2C)c1 returned MT1-MMP act inh 2, eIF4H FP inh 1, PABP FP inh inconclusive, CSC inhib -1, Rce1 inhib inactive, Env fusion inh -17 and MT1-MMP act inh RFP 7.
`COc1cc(/C=N/NC(=O)c2ccc(O)cc2)ccc1OCC(=O)Nc1cccc([N+](=O)[O-])c1` gave MT1-MMP act inh 6, eIF4H FP inh 16, PABP FP inh -10, Yeast UUG start -4, CSC inhib 30, Rce1 inhib inactive, Env fusion inh -21 and MT1-MMP act inh RFP 4.
`COc1ccc(N2CCC(CNC(=O)Nc3ccc(Cl)cc3)C2)cc1` (stereo unspecified) gave MT1-MMP act inh -1, eIF4H FP inh -11, PABP FP inh -17, Yeast UUG start -8, CSC inhib 30, Rce1 inhib inactive, Env fusion inh 22 and MT1-MMP act inh RFP -3.
CC(C)(C)OC(=O)C[C@@H]1C/C=C\C[C@@H](CC(=O)N[C@@H](CO)Cc2ccccc2)C(=O)N2CCC[C@@H]2COC1=O was read as MT1-MMP act inh 0, Yeast UUG start 29, CSC inhib 9, Env fusion inh 14 and MT1-MMP act inh RFP 3.
`O=C(COC(=O)CNC(=O)c1ccccc1F)Nc1ccc2c(c1)OCCO2` gave MT1-MMP act inh -4, eIF4H FP inh -2, PABP FP inh -1, Rce1 inhib inactive and MT1-MMP act inh RFP 5.
Cc1c(C(=O)NCC2CC2)sc(=O)n1Cc1cccc(F)c1 was read as MT1-MMP act inh 4, Yeast UUG start -9, Env fusion inh -27 and MT1-MMP act inh RFP 1.
Screening CCc1nc2ccccc2n1CC(C)C(=O)O (stereo unspecified) returned MT1-MMP act inh -3, eIF4H FP inh 6, PABP FP inh 14, Yeast UUG start -21, CSC inhib 2, Rce1 inhib inactive and MT1-MMP act inh RFP 1.
Screening CN(C)/C=C/c1[nH]c(=O)[nH]c(=O)c1[N+](=O)[O-] returned MT1-MMP act inh 3, eIF4H FP inh 12, PABP FP inh 16, Yeast UUG start -7, CSC inhib -3, Rce1 inhib inactive, Env fusion inh -11 and MT1-MMP act inh RFP 6.
O=C(NC1CC1)c1ccc2c(c1)N(Cc1ccc(Cl)cc1)CCS2 was read as MT1-MMP act inh -9, eIF4H FP inh -6, PABP FP inh -6, Yeast UUG start -10, CSC inhib 2, Rce1 inhib inactive, Env fusion inh 12 and MT1-MMP act inh RFP -5.
`COc1ccccc1CNC(=O)c1cccc(S(=O)(=O)N2CCN(C)CC2)c1` gave MT1-MMP act inh -1, eIF4H FP inh -2, PABP FP inh -7, CSC inhib 6, Rce1 inhib inactive, Env fusion inh -20 and MT1-MMP act inh RFP 3.
Screening O=C(NCCCn1ccnc1)c1ccc(OCC(F)(F)F)cc1 returned MT1-MMP act inh 2, eIF4H FP inh 0, PABP FP inh 2, Yeast UUG start -14, CSC inhib -4, Rce1 inhib inactive, Env fusion inh -1 and MT1-MMP act inh RFP 1.
`CCn1c(C(=O)NCCCN2CCc3ccccc3C2)cc2sccc21` gave MT1-MMP act inh 1, eIF4H FP inh -4, PABP FP inh -9, Yeast UUG start -5, CSC inhib -6, Rce1 inhib inactive, Env fusion inh 6 and MT1-MMP act inh RFP 5.
Cc1ccnc(SCCn2c(N3CCN(c4ccccc4)CC3)nc3c2c(=O)[nH]c(=O)n3C)n1 was read as MT1-MMP act inh 6, eIF4H FP inh -10, PABP FP inh -7, Yeast UUG start 3, CSC inhib -9, Rce1 inhib inactive, Env fusion inh -50 and MT1-MMP act inh RFP -1.

Assay outcomes as filed in PubChem BioAssay.
